TRPV1 PAM = potentiators of human vanilloid receptor 1 (TRPV1); Q8NER1; TRPV1-expressing cells, Fluo-8 calcium influx, capsaicin EC20 potentiation; host cell line not named in the record; control for the full effect not named in the record; potentiation, % at 8.33 µM; AID 540277; 320,000 compounds, 0.02% hits; active means potentiation above 80%; inconclusive means 30% to 80%; inactive means below 30%; also: 0% is about no effect
Target sequence (Q8NER1 whole entry, looked up): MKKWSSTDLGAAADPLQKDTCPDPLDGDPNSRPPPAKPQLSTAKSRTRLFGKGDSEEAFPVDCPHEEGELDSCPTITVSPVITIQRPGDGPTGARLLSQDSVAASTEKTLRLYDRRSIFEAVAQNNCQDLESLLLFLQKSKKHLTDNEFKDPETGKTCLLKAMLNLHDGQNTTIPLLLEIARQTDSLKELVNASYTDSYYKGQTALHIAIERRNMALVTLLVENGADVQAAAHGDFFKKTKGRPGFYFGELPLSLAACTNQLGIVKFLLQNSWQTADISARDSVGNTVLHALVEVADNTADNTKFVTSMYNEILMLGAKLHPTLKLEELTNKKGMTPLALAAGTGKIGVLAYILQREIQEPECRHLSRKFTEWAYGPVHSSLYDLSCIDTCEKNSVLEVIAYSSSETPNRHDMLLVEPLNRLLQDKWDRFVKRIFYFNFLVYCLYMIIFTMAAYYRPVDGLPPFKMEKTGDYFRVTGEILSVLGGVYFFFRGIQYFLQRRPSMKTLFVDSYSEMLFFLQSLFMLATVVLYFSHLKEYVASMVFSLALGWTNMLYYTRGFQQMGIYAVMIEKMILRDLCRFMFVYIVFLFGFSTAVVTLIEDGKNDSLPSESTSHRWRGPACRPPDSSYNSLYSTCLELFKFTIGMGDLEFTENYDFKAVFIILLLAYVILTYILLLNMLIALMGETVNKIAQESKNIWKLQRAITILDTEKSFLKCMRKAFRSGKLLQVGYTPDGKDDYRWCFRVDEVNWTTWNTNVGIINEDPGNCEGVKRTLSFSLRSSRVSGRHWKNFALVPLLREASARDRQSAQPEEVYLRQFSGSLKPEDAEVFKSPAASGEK
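TRPV1-expressing cells were cultured overnight at 35.5C and loaded with Fluo-8 calcium dye for 40 to 90 min at room temperature. After a 10 s baseline, compound was added and calcium influx was read kinetically for 3 min (ex 480/em 520 nm).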
Menin-MLL FL inh = displaces fluorescein MLL peptide from human menin; AID 1766; Fluorescence polarization, fluorescein-MLL peptide displacement from menin; 290,000 tested, under 10 active; FP activity change, % at 61.4 µM; inconclusive = falling polarisation curve, or a change in total fluorescence; inactive = total fluorescence flat and polarisation flat or rising; no compound was filed as active; the % refers to the polarisation; negative = inhibition;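 also: % of control where 0% means no effect; inhibitors lower the polarisation; unlabelled MLL peptide was the positive control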
gsp ag = agonists of gsp mutant (McCune-Albright syndrome) | gsp mutant cells, cAMP HTRF, 30 min; control for the full effect not named in the record | 340,000 compounds, 0.13% hits | Potency, µM (titrated, usually from 76.9 µM), without a hit: top-dose activation (cAMP increase), hits mostly activators; active = well fitted activation curve with a large enough effect; inconclusive = small, poorly fitted or top-dose-only effect, or another doubt; inactive = no such curve, though single readings can be large or run the other way; cell line not stated here;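 also: phosphodiesterase inhibitor Ro 20-1724 added with compounds to block cAMP breakdown; potency is read from the fitted curve at half-maximal effect; nearly all actives have a fitted effect of over 60% in size; about a fifth of the inactives were tested at one dose only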
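Cells in DMEM/10% FBS with G418 were pretreated with compounds in DMSO plus […] (300 uM stock) for 30 min at 37C. cAMP was measured by HTRF (cAMP-d2 plus anti-cAMP antibody-K) after 30 min at room temperature.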
ClpP mod = qHTS Assay for Activators of ClpP; AID 651965, 2013; 340,000 compounds, 1.9% hits; ATP-dependent Clp protease proteolytic subunit (Bacillus subtilis (strain 168)), P80244; Potency, µM (top dose mostly 57.5 µM), without a hit: at the highest dose activity change, negative = active; purified B. subtilis ClpP, FRET peptide cleavage, 20 min; active = well fitted falling curve with a large enough effect; inconclusive = small, poorly fitted or top-dose-only effect; inactive = no such curve, though single readings can be large or run the other way; also: potency is read from the fitted curve at half-maximal effect; the source files actives as falling curves though it sought activators and does not explain the sign; nearly all actives have a fitted effect of over 65% in size; many hits overshoot -100%
Target sequence (P80244 whole entry, looked up): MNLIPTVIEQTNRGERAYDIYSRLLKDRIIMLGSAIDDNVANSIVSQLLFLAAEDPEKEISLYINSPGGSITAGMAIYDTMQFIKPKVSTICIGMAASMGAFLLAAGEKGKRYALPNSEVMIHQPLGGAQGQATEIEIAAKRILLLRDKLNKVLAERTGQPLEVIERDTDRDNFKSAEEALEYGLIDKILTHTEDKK
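FRET quenching reversal measured ClpP activation: 10 microg/mL B. subtilis ClpP at pH 8 with the FRET-FV decapeptide, read at 430 nm after 320 nm excitation. The 20-min minus 0-min signal was scaled between DMSO/no-enzyme wells and ADEP (5.8 microM final).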
TRPML1 inh = blocks the human TRPML1 channel. Q9GZU1. TRPML1-inducible cells, Ca2+ dye fluorescence, FDSS; active compounds read low; inhibition of EC80 agonist-evoked calcium signal. activity change, negative = inhibition, % (no concentration beside the values). 390,000 compounds, 0.02% hits. AID 624415; in the data active means activity change below about -50%; inconclusive means about -30% to -50%; inactive means above about -30%;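 also: stimulus is agonist 54-4 at its EC80 concentration; % is scaled to controls: 0 for no effect and ±100 for the full control effect; compound concentration not given in the record; the text of the record puts the active cut at -80%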
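Calcium fluorescence in TRPML1-DL cells induced overnight with Tet: a 110 s read after compound pin addition, then a 110 s antagonist read after challenge with 54-4 at 4 uM final (EC80).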
gsp antag = antagonizes gsp, the McCune-Albright syndrome mutation; gsp-mutant cells, cAMP HTRF, 30 min; control for the full effect not named in the record; Potency, µM (top dose mostly 76.9 µM), without a hit: top-dose activity change, negative = inhibition, most hits filed as inhibitors; 340,000 compounds, 0.4% hits; active = falling curve of any shape with a large fitted effect; inconclusive = falling curve, mostly with a smaller effect; inactive = flat or rising curve; cell line not stated here;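 also: intracellular cAMP measured with PDE inhibitor Ro 20-1724 present during compound exposure; potency is read from the fitted curve at half-maximal effect; % is scaled to controls: 0 for no effect and ±100 for the full control effect; nearly all actives have a fitted effect of over 65% in size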
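HTRF cAMP read-out (cAMP-d2 plus anti-cAMP antibody-K in lysis buffer, 30 min RT). Before lysis, cells are exposed to compounds with […] for 30 min at 37C in DPBS containing Ca/Mg, BSA and Tween 20.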
Sfp inh = inhibitors of Bacillus subtilis Sfp phosphopantetheinyl transferase; AID 1490; Biochemical Sfp PPTase activity, qHTS; Potency, µM, for inactives: max response, negative = inhibition, actives largely listed as inhibitors; 310,000 compounds, 3.5% hits; Q9F4F7; active = well fitted inhibition curve with a large enough effect; inconclusive = small, poorly fitted or top-dose-only effect, or another doubt; inactive = no such curve, though single readings can be large or run the other way;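 also: the enzyme is Sfp with the accession as filed and its product quenches rhodamine fluorescence; potency is read from the fitted curve at half-maximal effect; 0% = enzyme reaction without inhibitor and -100% = no enzyme wells; top concentration of the series not given in the record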
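After 15 min at room temperature with compound, 15 nM Sfp received 5 uM rhodamine-CoA plus 12.5 uM BHQ-2-ybbR (50 mM Hepes pH 7.6, 10 mM MgCl2). Rate came from the fluorescence difference over 30 min, ex 525/em 598 nm.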
* hit, by the source's call; [ ] = another dose, or the depositor's remark.

What do the screens show for `CC(=O)OCC1=C(C(=O)O)N2C(=O)C(NC(=O)Cc3ccccc3)C2SC1` (stereo not given)?
Menin-MLL FL inh: 6.3; ClpP mod: -3.4%; Sfp inh: inconclusive

How did CNC(=S)N(Cc1ccco1)Cc1cc2cc(OC)ccc2[nH]c1=O do in these assays?
TRPV1 PAM: -2; Menin-MLL FL inh: 1.5; gsp ag: 9%[15.4 µM]; TRPML1 inh: 0; Sfp inh: 1%

What do the screens show for `CN(c1ccccc1)S(=O)(=O)c1ccc(C(=O)N2CCN(c3ccccc3)CC2)cc1`?
gsp ag: 4%; ClpP mod: 0.6%; TRPML1 inh: 3

How did CCCOC(=O)c1c(N)sc2c1CCC2 do in these assays?
TRPV1 PAM: 10; Menin-MLL FL inh: inconclusive; gsp ag: 22%; ClpP mod: 0.1%; TRPML1 inh: -7; gsp antag: -15%; Sfp inh: 50µM*

Results for COc1cccc(-c2nnc(SCC(=O)N3CC(C)CC(C)C3)o2)c1 (stereo not given) ?
TRPV1 PAM: 0; Menin-MLL FL inh: 6.5; gsp ag: -40%[inhibitor]; ClpP mod: -8.2%; TRPML1 inh: -12; gsp antag: -25%; Sfp inh: 8%

What do the screens show for `Clc1ccc(N=C2SCC3CCCCN23)cc1` (stereo not given)?
TRPV1 PAM: -9; Menin-MLL FL inh: -1.8; gsp ag: -7%; TRPML1 inh: 12; gsp antag: -9%; Sfp inh: -8%

What do the screens show for `COc1ccc(N2CCN(CCCn3cnc4c(OC)ncnc43)CC2)cc1`?
gsp ag: -25%; ClpP mod: -8.6%; TRPML1 inh: -6

What do the screens show for `O=C(Nc1nn[nH]n1)c1cc(-c2ccc(Cl)c(Cl)c2Cl)nc2ccccc12`?
TRPV1 PAM: -34; Menin-MLL FL inh: 4.0; gsp ag: -14%; ClpP mod: -3.8%; TRPML1 inh: 32; gsp antag: 9%; Sfp inh: -11%

How did Cc1ccccc1-c1nnc(SCc2ccccc2F)o1 do in these assays?
TRPV1 PAM: -17; Menin-MLL FL inh: 1.6; gsp ag: 24%; ClpP mod: -0.3%; TRPML1 inh: 2; gsp antag: -8%; Sfp inh: -4%

What do the screens show for `Cc1cc(C(=O)OCC(=O)NC(C)(C)C)c2ccccc2n1`?
TRPV1 PAM: -7; Menin-MLL FL inh: -0.1; gsp ag: -33%[inhibitor]; ClpP mod: inconclusive; TRPML1 inh: 10; gsp antag: 2%; Sfp inh: -20%

What do the screens show for `C/C(=N/NC(=O)Cn1nc2ccccc2n1)c1ccc(F)cc1`?
TRPV1 PAM: 11; Menin-MLL FL inh: 3.4; gsp ag: 2%; ClpP mod: 2.1%; TRPML1 inh: -15; gsp antag: -10%; Sfp inh: -20%

How did Cc1ccc(S(=O)(=O)N2CCC(c3nc4c(nnn4Cc4ccccc4)c(=O)[nH]3)CC2)cc1 do in these assays?
TRPV1 PAM: -2; Menin-MLL FL inh: 1.1; gsp ag: -11%; TRPML1 inh: 4; gsp antag: -14%; Sfp inh: 4%

What do the screens show for `O=C(NCC(c1ccc(F)cc1)N1CCOCC1)c1nn(-c2ccccc2)c(=O)c2ccccc12` (stereo not given)?
TRPV1 PAM: -19; gsp ag: 13%; ClpP mod: -4.5%; TRPML1 inh: 5; gsp antag: -29%

How did CC1CN(Cc2ccco2)C(=S)N(c2ccccc2)C1=O (stereo not given) do in these assays?
gsp ag: 7%; ClpP mod: -2.7%; TRPML1 inh: 11; gsp antag: 5%

How did Cn1c(SCC(=O)N/N=C/c2ccc(O)c(O)c2)nc2ccccc21 do in these assays?
TRPV1 PAM: inconclusive; Menin-MLL FL inh: -0.7; gsp ag: -14%; ClpP mod: -6.8%; TRPML1 inh: -1; gsp antag: 1%; Sfp inh: -22%

What do the screens show for `CN(CC(=O)Nc1c(Cl)cccc1Cl)C(=O)c1cccn1C`?
TRPV1 PAM: 5; gsp ag: 17%; ClpP mod: 0.1%; TRPML1 inh: -6; gsp antag: 24%; Sfp inh: -8%

What do the screens show for `O=C(Nc1nc2ccc(S(=O)(=O)N3CCCC3)cc2s1)c1ccc(F)cc1`?
TRPV1 PAM: -20; ClpP mod: inconclusive; TRPML1 inh: 14

Results for CC1CC1C(=O)OCC(=O)N(C)c1c(N)n(Cc2ccccc2)c(=O)[nH]c1=O (stereo not given) ?
TRPV1 PAM: 4; gsp ag: -15%; ClpP mod: 0.6%; TRPML1 inh: -11; gsp antag: 14%

What do the screens show for `Fc1ccc(C2=Nn3c(Cc4ccccc4F)nnc3SC2)cc1`?
TRPV1 PAM: -18; Menin-MLL FL inh: -1.5; gsp ag: 9%; ClpP mod: 0.4%; TRPML1 inh: 37; gsp antag: 14%; Sfp inh: -1%

Results for Nc1ccc(CN2CCOCC2)cc1 ?
TRPV1 PAM: inconclusive; Menin-MLL FL inh: 3.4; gsp ag: -1%; ClpP mod: 1.1%; TRPML1 inh: 11; gsp antag: -4%; Sfp inh: 6%

How did N#C/C(=N\Nc1ccc(S(=O)(=O)N2CCCCC2)cc1)C(N)=S do in these assays?
TRPV1 PAM: -2; Menin-MLL FL inh: 1.2; gsp ag: 5%[15.4 µM]; ClpP mod: -3.9%; TRPML1 inh: 25; gsp antag: inconclusive; Sfp inh: inconclusive

Results for Cc1cc(=O)[nH]c(SCC(=O)Nc2cccc3ccccc23)c1C#N ?
TRPV1 PAM: -2; Menin-MLL FL inh: 4.1; gsp ag: -1%; ClpP mod: -18%; TRPML1 inh: 11; gsp antag: inconclusive; Sfp inh: 50µM*

Results for NNC(=S)NC1CCCCCCCCCCC1 ?
TRPV1 PAM: 3; Menin-MLL FL inh: 4.3; gsp ag: 10%; ClpP mod: -0.1%; TRPML1 inh: 43; gsp antag: -9%; Sfp inh: 12%

Results for CCOC(=O)N1CCN(Cc2nc3cc(NC(=O)C(C)C)ccc3n2C)CC1 ?
TRPV1 PAM: -10; Menin-MLL FL inh: 5.2; gsp ag: -3%[15.4 µM]; ClpP mod: -0.5%; TRPML1 inh: -13; gsp antag: 10%; Sfp inh: 5%

Molecules shown so far that have two or more sulfur atoms:
What do the screens show for `O=C(Nc1nc2ccc(S(=O)(=O)N3CCCC3)cc2s1)c1ccc(F)cc1`?
TRPV1 PAM: -20; ClpP mod: inconclusive; TRPML1 inh: 14

How did N#C/C(=N\Nc1ccc(S(=O)(=O)N2CCCCC2)cc1)C(N)=S do in these assays?
TRPV1 PAM: -2; Menin-MLL FL inh: 1.2; gsp ag: 5%[15.4 µM]; ClpP mod: -3.9%; TRPML1 inh: 25; gsp antag: inconclusive; Sfp inh: inconclusive

The list goes on.
How did COCCCNC(=O)C1Cc2cc(S(=O)(=O)N3CCCC3)ccc2N1C(C)=O (stereo not given) do in these assays?
TRPV1 PAM: 18; gsp ag: -7%; ClpP mod: 0.2%; TRPML1 inh: 5; gsp antag: 4%; Sfp inh: 9%

Results for COc1cc(Cl)ccc1NC(=O)COc1ccccc1C(=O)N1CCN(c2ccc(O)cc2)CC1 ?
TRPV1 PAM: 6; Menin-MLL FL inh: 0.9; gsp ag: -29%; ClpP mod: -0.5%; TRPML1 inh: 19; gsp antag: -1%; Sfp inh: inconclusive

What do the screens show for `O=S(=O)(Cc1ccccc1)N1CCC(c2nc(-c3cccs3)no2)CC1`?
TRPV1 PAM: -6; Menin-MLL FL inh: -1.6; gsp ag: 14%; ClpP mod: 0.9%; TRPML1 inh: 53; gsp antag: -24%; Sfp inh: -10%

Results for CSc1ccc(/C=N/NC(=O)c2ccc(-n3cnnn3)cc2)cc1 ?
TRPV1 PAM: -14; gsp ag: 23%; ClpP mod: 4.0%; TRPML1 inh: 17; gsp antag: 1%

Results for Cc1c(C(=O)Nc2ccc(S(=O)(=O)N3CCOCC3)cc2)cccc1[N+](=O)[O-] ?
TRPV1 PAM: -22; Menin-MLL FL inh: -2.5; gsp ag: -34%[inhibitor]; ClpP mod: -0.1%; gsp antag: 6%; Sfp inh: 13%

Results for Cc1ccccc1SCC(=O)Nc1cccc(C#N)c1 ?
TRPV1 PAM: -3; Menin-MLL FL inh: 3.5; gsp ag: 21%; ClpP mod: -0.1%; TRPML1 inh: 11; gsp antag: -5%; Sfp inh: 4%

Results for Cc1cccc(C)c1NC(=O)N1C2CCCC1CC(NC(=O)C(C)(C)C)C2 (stereo not given) ?
TRPV1 PAM: 5; Menin-MLL FL inh: -2.4; gsp ag: -46%[inhibitor]; ClpP mod: -0.4%; TRPML1 inh: 14; gsp antag: -8%; Sfp inh: 0%

Results for Cn1ncc(N2CCN(S(=O)(=O)c3ccc(Br)cc3)CC2)c(Cl)c1=O ?
TRPV1 PAM: 9; Menin-MLL FL inh: 0.0; gsp ag: 1%[15.4 µM]; TRPML1 inh: 19; gsp antag: -8%; Sfp inh: -12%

What do the screens show for `CC1=NN(c2ccccc2C(=O)O)C(=O)C1N=Nc1ccccc1` (stereo not given)?
TRPV1 PAM: -8; Menin-MLL FL inh: -5.0; gsp ag: -108%[inhibitor]; ClpP mod: -3.0%; TRPML1 inh: 16; gsp antag: inconclusive; Sfp inh: 3%

What do the screens show for `Cc1ccc(S(=O)(=O)Oc2cccc(/C=N/Nc3ccc(C(=O)O)cc3)c2)cc1`?
TRPV1 PAM: 13; Menin-MLL FL inh: -1.6; gsp ag: 6%; TRPML1 inh: 1; gsp antag: -27%; Sfp inh: 13%

What do the screens show for `Cc1ccc(-c2csc3ncnc(SCC(=O)NCC4CCCO4)c23)cc1` (stereo not given)?
TRPV1 PAM: -21; gsp ag: 3%; ClpP mod: -2.2%; TRPML1 inh: -14; gsp antag: -1%

How did S=c1nc(-c2ccccc2)n(Cc2ccco2)c2c1CCCC2 do in these assays?
TRPV1 PAM: -5; Menin-MLL FL inh: 6.2; Sfp inh: -21%

Results for Cc1ccc(N(C(=O)c2cc3ccccc3oc2=O)C2C=CS(=O)(=O)C2)cc1 (stereo not given) ?
TRPV1 PAM: 4; Menin-MLL FL inh: 3.5; gsp ag: 2%[15.4 µM]; ClpP mod: -5.9%; TRPML1 inh: 6; gsp antag: 9%; Sfp inh: 21%

Screens as filed in PubChem BioAssay.
